Env fusion inh = blocks HIV Env-driven cell-cell fusion. HeLa-JRFL Env/CEM21 cell fusion, luciferase. inhibition, % at 12.3 µM. 1.1% of 360,000 active;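 active = mean replicate inhibition score of at least 50 and every replicate individually at or above 50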;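 note: 0% = plate neutral controls and 100% = maraviroc near 300 nM; one replicate is shown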
UUG fidelity = modulators of start codon recognition fidelity in yeast; AID 602363; activity score, % at 18.7 µM; S. cerevisiae UUG-firefly luciferase reporter, luminescence/redox ratio; 0.13% of 350,000 active;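 active = replicate mean at a twofold rise or more, about +100% in these data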;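 note: firefly luciferase made from a UUG start codon reports start codon fidelity; reporter light over untreated wells divided by growth signal over untreated wells; some hits fall short of that in this replicate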
* = called active by the depositor; & = joins results of further samples; [ ] = another dose, or the depositor's remark.

Compound	UUG fidelity	Env fusion inh
CC(C)NC(=O)Nc1ccc2c(c1)C(=O)N([C@H](C)CO)C[C@@H](C)[C@@H](CN(C)Cc1ccc(Cl)c(Cl)c1)OCCCC[C@H](C)O2	10.7	-3.2[16.7 µM]
C/C=C/c1cnc2c(c1)C(=O)N([C@H](C)CO)C[C@@H](C)[C@@H](CN(C)Cc1ccc(F)cc1)O2	-3.2	15.4[16.7 µM]
COc1ccc(S(=O)(=O)N[C@H]2CC[C@@H](CC(=O)N3CCc4ccccc4C3)O[C@H]2CO)cc1	-8.3	-369.3[16.7 µM]
Cc1noc(C)c1S(=O)(=O)N(C)C[C@@H]1OCCCC[C@H](C)Oc2ccc(NC(=O)C3CCCCC3)cc2C(=O)N([C@H](C)CO)C[C@H]1C	3.5	-6.8[16.7 µM]
COCC(=O)Nc1ccc2c(c1)C(=O)N(C)[C@@H]1CC[C@@H](CC(=O)NCc3ccccc3F)O[C@@H]1CO2	12.7	0.1[16.7 µM]
Cc1ccc(S(=O)(=O)N(C)C[C@H]2Oc3c(NS(=O)(=O)c4ccccc4)cccc3C(=O)N([C@@H](C)CO)C[C@@H]2C)cc1	-5.2	-19.1[16.7 µM]
C[C@@H]1CN([C@H](C)CO)C(=O)c2cc(NC(=O)c3ccncc3)ccc2O[C@@H]1CN(C)Cc1ccccc1	1.2	9.9[16.7 µM]
C[C@@H]1CN([C@@H](C)CO)S(=O)(=O)c2ccc(-c3ccccc3)cc2O[C@H]1CN(C)Cc1cccc(F)c1	30.8	52.3[16.7 µM]
C[C@@H]1CCCCO[C@@H](CN(C)C(=O)C2CCCCC2)[C@H](C)CN([C@H](C)CO)C(=O)c2cc(NC(=O)c3ccncc3)ccc2O1	34.7	-7.6[16.7 µM]
C[C@@H]1CN([C@@H](C)CO)C(=O)c2cc(NC(=O)Nc3ccc(C(F)(F)F)cc3)ccc2O[C@@H]1CN(C)Cc1ccc(-c2ccccc2)cc1	7.6	-6.0[16.7 µM]
COc1ccc(S(=O)(=O)Nc2ccc3c(c2)C(=O)N([C@@H](C)CO)C[C@H](C)[C@H](CN(C)Cc2ccc4c(c2)OCO4)OCCCC[C@H](C)O3)cc1	1.1	-18.2[16.7 µM]
CCCN(C)C[C@@H]1Oc2ncc(C#Cc3ccccc3)cc2C(=O)N([C@H](C)CO)C[C@@H]1C	0.4	0.1[16.7 µM]
C[C@@H]1CN([C@@H](C)CO)C(=O)c2cccc(N(C)C)c2O[C@@H]1CN(C)S(=O)(=O)c1cccs1	-8.7	12.6[16.7 µM]
C[C@@H]1CCCCO[C@H](CN(C)C(=O)NC2CCCCC2)[C@H](C)CN([C@H](C)CO)C(=O)c2cc(NC(=O)CCC(F)(F)F)ccc2O1	8.1	11.0[16.7 µM]
O=C(NC1CCCCC1)N[C@H]1CC[C@H](CCNS(=O)(=O)c2ccccc2)O[C@@H]1CO	-6.9	8.1[16.7 µM]
C[C@@H]1CN([C@H](C)CO)C(=O)Cc2cc(NC(=O)Nc3ccc4c(c3)OCO4)ccc2O[C@H]1CN(C)C(=O)NC1CCCCC1	18.0	-13.2[16.7 µM]
O=C(C[C@@H]1C=C[C@H](NC(=O)c2ccc3c(c2)OCO3)[C@@H](CO)O1)NCc1ccc(Cl)cc1	-0.5	-3.3[16.7 µM]
COc1ccc(S(=O)(=O)Nc2ccc3c(c2)C(=O)N([C@H](C)CO)C[C@H](C)[C@@H](CN(C)C(=O)Nc2ccc(F)cc2)O3)cc1	10.0	-28.6[16.7 µM]
C[C@H]1CCCCO[C@@H](CN(C)S(=O)(=O)c2cccs2)[C@@H](C)CN([C@@H](C)CO)C(=O)c2cc(NS(=O)(=O)c3ccccc3)ccc2O1	12.8	62.5*[16.7 µM]
COCC(=O)N1[C@H](C#N)[C@@H](c2ccc(C#Cc3ccccc3F)cc2)[C@H]1CO	7.0	-6.6[16.7 µM]
CN1C(=O)c2cc(NC(=O)c3cscn3)ccc2OC[C@@H]2O[C@H](CC(=O)N3CCOCC3)CC[C@@H]21	-7.7	-1.7[16.7 µM]
C[C@@H]1CN([C@@H](C)CO)S(=O)(=O)c2ccc(C#Cc3ccccn3)cc2O[C@H]1CN(C)Cc1ccc(F)cc1	14.9	-18.0[16.7 µM]
CCCN(C)C[C@H]1Oc2cc(C3=CCCCC3)ccc2S(=O)(=O)N([C@H](C)CO)C[C@H]1C	0.9	13.7[16.7 µM]
Cc1noc(C)c1S(=O)(=O)N(C)C[C@@H]1Oc2ccc(NC(=O)Nc3ccc4c(c3)OCO4)cc2CC(=O)N([C@@H](C)CO)C[C@@H]1C	-2.2	37.4[16.7 µM]
Cc1ccc(S(=O)(=O)N(C)C[C@H]2Oc3ccc(NS(=O)(=O)c4cccs4)cc3C(=O)N([C@@H](C)CO)C[C@@H]2C)cc1	7.4	12.2[16.7 µM]
COc1ccc(C#Cc2cnc3c(c2)C(=O)N([C@@H](C)CO)C[C@@H](C)[C@@H](CN(C)C(=O)c2ccccc2F)O3)cc1	25.8	7.9[16.7 µM]
C[C@@H]1CN([C@H](C)CO)C(=O)c2cc(NS(=O)(=O)c3cn(C)cn3)ccc2O[C@@H]1CN(C)Cc1ccccc1	-7.1	-18.8[16.7 µM]
C[C@H]1CN([C@@H](C)CO)C(=O)Cc2cc(NC(=O)Nc3ccc(F)cc3)ccc2O[C@@H]1CN(C)C(=O)Nc1cccc2ccccc12	3.6	-18.6[16.7 µM]
C[C@H]1CCCCO[C@H](CN(C)C(=O)Nc2ccccc2)[C@@H](C)CN([C@@H](C)CO)C(=O)c2cc(N(C)C)ccc2O1	9.4	6.8[16.7 µM]
O=C(C[C@@H]1CC[C@@H](NC(=O)CN2CCOCC2)[C@H](CO)O1)NCCc1ccncc1	-1.5	9.6[16.7 µM]

A second format for part of the listing above:
Every second line gives: UUG fidelity	Env fusion inh
C[C@@H]1CN([C@@H](C)CO)C(=O)c2cc(NC(=O)Nc3ccc(C(F)(F)F)cc3)ccc2O[C@@H]1CN(C)Cc1ccc(-c2ccccc2)cc1
→ 7.6	-6.0[16.7 µM]
COc1ccc(S(=O)(=O)Nc2ccc3c(c2)C(=O)N([C@@H](C)CO)C[C@H](C)[C@H](CN(C)Cc2ccc4c(c2)OCO4)OCCCC[C@H](C)O3)cc1
→ 1.1	-18.2[16.7 µM]

Later entries
Compound	UUG fidelity	Env fusion inh
C[C@H](CO)N1C[C@H](C)[C@@H](CN(C)C(=O)NC2CCCCC2)Oc2ccc(NS(C)(=O)=O)cc2CC1=O	5.9	1.1[16.7 µM]
CNC[C@H]1Oc2cc(C#Cc3cccc(F)c3)ccc2S(=O)(=O)N([C@@H](C)CO)C[C@H]1C	28.8	-31.7[16.7 µM]
O=C(CN1CCOCC1)NCC[C@H]1CC[C@H](NS(=O)(=O)c2ccc(Cl)cc2)[C@@H](CO)O1	-3.6	-11.2[16.7 µM]
C[C@@H]1CN([C@@H](C)CO)C(=O)c2cc(NC(=O)NC3CCCCC3)ccc2O[C@@H](C)CCCCO[C@@H]1CN(C)Cc1ccc(C(=O)O)cc1	8.0	-14.9[16.7 µM]
COc1ccc(NC(=O)N(C)C[C@@H]2Oc3ccc(NS(=O)(=O)c4cn(C)cn4)cc3CC(=O)N([C@@H](C)CO)C[C@H]2C)cc1	-1.7	5.2[16.7 µM]
C[C@@H]1CN([C@@H](C)CO)S(=O)(=O)c2ccc(C3=CCCC3)cc2O[C@H]1CN(C)C(=O)CC1CC1	3.3	-17.1[16.7 µM]
C/C=C/c1ccc2c(c1)O[C@@H](CN(C)C(=O)Cc1ccccn1)[C@H](C)CN([C@H](C)CO)S2(=O)=O	9.1	-1.2[16.7 µM]
C[C@@H]1CN([C@@H](C)CO)C(=O)c2cc(NS(=O)(=O)c3ccc(F)cc3)ccc2O[C@@H](C)CCCCO[C@@H]1CN(C)Cc1ccc(C(=O)O)cc1	30.0	-8.5[16.7 µM]
C/C=C/c1ccc2c(c1)O[C@H](CN(C)C(=O)Nc1cc(F)ccc1F)[C@@H](C)CN([C@@H](C)CO)S2(=O)=O	-4.9	2.4[16.7 µM]
C[C@@H]1CN([C@@H](C)CO)C(=O)c2cc(NS(=O)(=O)c3ccc(F)cc3)ccc2O[C@@H](C)CCCCO[C@H]1CN(C)C(=O)C1CCCCC1	4.1	-179.3[16.7 µM]
O=C(C[C@H]1C[C@H]2c3cc(NS(=O)(=O)c4ccc(F)cc4)ccc3O[C@H]2[C@H](CO)O1)NCc1ccccc1F	-0.3	5.1[16.7 µM]
COCC(=O)Nc1ccc2c(c1)C(=O)N(C)C[C@H](OC)[C@@H](C)CN(CCC(F)(F)F)[C@H](C)CO2	20.1	-28.0[16.7 µM]
CC(C)C#Cc1cnc2c(c1)C(=O)N([C@H](C)CO)C[C@@H](C)[C@@H](CN(C)Cc1ccccc1F)O2	1.0	13.2[16.7 µM]
C[C@H](CO)N1C[C@H](C)[C@H](CN(C)C(=O)Nc2ccc3c(c2)OCO3)OCCCC[C@H](C)Oc2ccc(NS(=O)(=O)c3cccs3)cc2C1=O	-3.4	-101.9[16.7 µM]
C[C@H](CO)N1C[C@H](C)[C@H](CN(C)C(=O)c2ccccc2)Oc2cc(/C=C/c3ccccc3)ccc2S1(=O)=O	-10.7	46.5[16.7 µM]
Cc1noc(C)c1S(=O)(=O)Nc1ccc2c(c1)C(=O)N([C@@H](C)CO)C[C@H](C)[C@@H](CN(C)C(=O)Cc1ccccc1)OCCCC[C@H](C)O2	15.1	-31.2[16.7 µM]
C[C@H]1CN([C@@H](C)CO)C(=O)c2cc(NC(=O)CCC(F)(F)F)ccc2O[C@H]1CN(C)C(=O)NC1CCCCC1	3.6	12.8[16.7 µM]
NCC[C@H]1CC[C@H](NC(=O)Nc2ccc(F)cc2)[C@@H](CO)O1	2.0	20.1[16.7 µM]
COc1ccc(S(=O)(=O)Nc2ccc3c(c2)C(=O)N([C@H](C)CO)C[C@@H](C)[C@H](CN(C)Cc2ccc4c(c2)OCO4)OCCCC[C@H](C)O3)cc1	10.5	-8.9[16.7 µM]
C[C@H]1CN([C@@H](C)CO)C(=O)c2cccc(NC(=O)C3CCOCC3)c2O[C@H]1CN(C)CC1CCCCC1	0.8	-6.3[16.7 µM]
CCC(=O)Nc1ccc2c(c1)OC[C@@H](C)N(Cc1cccc(F)c1)C[C@H](C)[C@H](OC)CN(C)C2=O	-11.4	-11.5[16.7 µM]
Cc1noc(C)c1S(=O)(=O)Nc1ccc2c(c1)C(=O)N([C@@H](C)CO)C[C@H](C)[C@@H](CN(C)Cc1ccc(Cl)c(Cl)c1)O2	-4.8	4.9[16.7 µM]
CN1C(=O)c2cc(NC(=O)c3cccc(F)c3)ccc2OC[C@H]2O[C@H](CC(=O)NC3CCC3)CC[C@@H]21	3.8&1.0	3.0&-7.3[16.7 µM]
C[C@@H]1CCCCO[C@@H](CN(C)C(=O)Cc2ccccc2)[C@@H](C)CN([C@H](C)CO)C(=O)c2cc(NC(=O)Nc3ccc(C(F)(F)F)cc3)ccc2O1	-15.9	20.1[16.7 µM]
C[C@@H]1CCCCO[C@@H](CN(C)C(=O)c2ccccc2)[C@@H](C)CN([C@@H](C)CO)C(=O)c2cc(NC(=O)Nc3ccc(C(F)(F)F)cc3)ccc2O1	-11.7	-5.5[16.7 µM]
Cc1ccc(S(=O)(=O)N(C)C[C@H]2Oc3ccc(NC(=O)Nc4c(C)noc4C)cc3CC(=O)N([C@@H](C)CO)C[C@H]2C)cc1	8.6	8.7[16.7 µM]
C[C@H](CO)N1C[C@H](C)[C@@H](CN(C)S(=O)(=O)c2ccccc2F)Oc2ncc(C#Cc3ccccc3)cc2C1=O	-2.0	-5.5[16.7 µM]
Cc1ccc(-c2ccc3c(c2)O[C@H](CN(C)C(=O)CN(C)C)[C@H](C)CN([C@@H](C)CO)S3(=O)=O)cc1	25.3	-4.4[16.7 µM]
C[C@@H]1CCCCO[C@@H](CN(C)Cc2ccc(C(F)(F)F)cc2)[C@@H](C)CN([C@@H](C)CO)C(=O)c2cc(NC(=O)c3ccncc3)ccc2O1	35.2	-3.1[16.7 µM]
CCC(=O)N(C)C[C@H]1Oc2cc(-c3cccc(F)c3)ccc2S(=O)(=O)N([C@H](C)CO)C[C@H]1C	-10.3	0.0[16.7 µM]
O=C(C[C@@H]1CC[C@@H](NC(=O)C2CCC2)[C@@H](CO)O1)NCc1ccccc1Cl	-13.8	-1.1[16.7 µM]
COCc1cn(CC[C@@H]2CC[C@H](NC(=O)Nc3ccccc3)[C@H](CO)O2)nn1	-8.2	-12.0[16.7 µM]
Cc1noc(C)c1NC(=O)N(C)C[C@H]1Oc2ccc(NC(=O)Nc3ccc(C(F)(F)F)cc3)cc2CC(=O)N([C@@H](C)CO)C[C@@H]1C	1.5	32.0[16.7 µM]
C[C@@H]1CN([C@@H](C)CO)C(=O)c2cc(C#CCN(C)C)cnc2O[C@@H]1CN(C)S(=O)(=O)c1ccccc1	-2.4	-6.6[16.7 µM]
C[C@@H]1CN([C@H](C)CO)C(=O)c2cc(C#Cc3ccc(F)cc3)cnc2O[C@@H]1CN(C)C(=O)c1ccccc1F	15.3	13.6[16.7 µM]

Entries of single compounds as entered above. Order of screens: UUG fidelity, Env fusion inh
C[C@@H]1CN([C@H](C)CO)C(=O)Cc2cc(NC(=O)Nc3ccc4c(c3)OCO4)ccc2O[C@H]1CN(C)C(=O)NC1CCCCC1 is listed with 18.0, -13.2[16.7 µM]
C/C=C/c1cnc2c(c1)C(=O)N([C@H](C)CO)C[C@@H](C)[C@@H](CN(C)Cc1ccc(F)cc1)O2 is listed with -3.2, 15.4[16.7 µM]
C/C=C/c1ccc2c(c1)O[C@H](CN(C)C(=O)Nc1cc(F)ccc1F)[C@@H](C)CN([C@@H](C)CO)S2(=O)=O is listed with -4.9, 2.4[16.7 µM]
O=C(C[C@H]1C[C@H]2c3cc(NS(=O)(=O)c4ccc(F)cc4)ccc3O[C@H]2[C@H](CO)O1)NCc1ccccc1F is listed with -0.3, 5.1[16.7 µM]

Only part of the results is shown; rates above refer to the full screens.
